VDR inhibitor: Inhibitors of the vitamin D receptor (VDR): qHTS; VDR-SRC2-3 peptide fluorescence polarization, 2 h; AID 504847, 2011; hit rate 0.93% among 400,000; Potency, µM, for the others: max response, negative = inhibition, most hits filed as inhibitors; active = well fitted inhibition curve with a large enough effect; inconclusive = small, poorly fitted or top-dose-only effect, or another doubt; inactive = no such curve, though single readings can be large or run the other way; note: series mostly up to about 120 µM
Target sequence (P11473 whole entry, looked up): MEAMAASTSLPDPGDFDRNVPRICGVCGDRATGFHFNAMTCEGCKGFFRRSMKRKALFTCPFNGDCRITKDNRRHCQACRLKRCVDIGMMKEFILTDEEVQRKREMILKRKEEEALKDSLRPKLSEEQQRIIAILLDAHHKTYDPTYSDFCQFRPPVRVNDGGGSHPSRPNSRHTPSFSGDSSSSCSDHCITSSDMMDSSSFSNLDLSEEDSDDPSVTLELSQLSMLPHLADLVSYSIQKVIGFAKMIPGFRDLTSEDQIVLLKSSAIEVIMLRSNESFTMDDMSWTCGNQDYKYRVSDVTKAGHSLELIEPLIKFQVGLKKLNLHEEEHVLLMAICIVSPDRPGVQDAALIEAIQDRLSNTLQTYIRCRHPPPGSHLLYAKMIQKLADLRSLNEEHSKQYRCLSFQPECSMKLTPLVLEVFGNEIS
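Signal is fluorescence polarization, reporting how far test compounds block the interaction of VDR with the SRC2-3 coregulator peptide after a 2 h room-temperature incubation.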
An asterisk follows results filed as active; & = joins results of further samples; [ ] = dose if it differs, or a comment. % is set by controls: 0 for no effect and ±100 for the full control effect; potency is the fitted concentration of half-maximal effect.

The opening two entries, ahead of the listing:
`CC(C)c1ccc(NC2CCCN(C(=O)c3cnn(C(C)C)c3)C2)cc1` (stereo unspecified) gave VDR inhibitor 4%.
For Cc1nn(CC(=O)NC(C)C(C)C)c(C)c1S(=O)(=O)N1CCCCC1 (stereo unspecified) the results were VDR inhibitor -2%.

Main list, from the first entry:
`CC(C)c1ccc(NC2CCCN(C(=O)c3cnn(C(C)C)c3)C2)cc1` (stereo unspecified) gave VDR inhibitor 4%.
For Cc1nn(CC(=O)NC(C)C(C)C)c(C)c1S(=O)(=O)N1CCCCC1 (stereo unspecified) the results were VDR inhibitor -2%.
Screening COc1ccc(Cn2c(C)c(C)c(C#N)c2NC(=O)Nc2cccc(C)c2)cc1 returned VDR inhibitor 34%[activator].
For Cc1ccccc1OCC(=O)NN1CCN(C)CC1 the results were VDR inhibitor -16%.
`COCCN(CC(=O)Nc1cccc(C)c1C)C(=O)c1cc(-c2cccs2)nn1-c1ccccc1` gave VDR inhibitor -10%.
Screening O=c1cc(-c2ccc(F)cc2)nc(SCc2nc(-c3cccc(Cl)c3)no2)[nH]1 returned VDR inhibitor 10%.
For CCCOC(=O)c1ccc(O)c(OC)c1 the results were VDR inhibitor -4%.
COc1cc(C)nc(Oc2ccc(OCCOc3ccccc3)nn2)n1 was read as VDR inhibitor 1%.
`CC(=O)Oc1ccc(/C=C2/C(=O)N(c3ccccc3)N=C2C)cc1` gave VDR inhibitor inconclusive.
`COc1cc(/C=C/c2nc3ccccc3c(=O)[nH]2)cc(Cl)c1O` gave VDR inhibitor -6%.
COC(=O)c1ccc(/C=N\NC(=O)CC(=O)NCCc2ccccc2)cc1 was read as VDR inhibitor -6%.
For C#CCN1C=CC(=O)[C@@H](O)[C@H]1c1ccccc1Br the results were VDR inhibitor 2%.
For Cn1cnc(S(=O)(=O)N2CCCC(C(=O)NCc3ccc(F)cc3)C2)c1 (stereo unspecified) the results were VDR inhibitor 8%.
Screening CC1(C)C(=O)C=C[C@]2(C)C1CC(=O)[C@]1(C)C2CC[C@@]2(C)C(c3ccoc3)OC(=O)C3O[C@@]321 (stereo partly specified) returned VDR inhibitor 20µM*.
`Cc1ccccc1-n1c(-c2csc(C)c2C)n[nH]c1=S` gave VDR inhibitor -10%.
O=C(NC(=S)Nc1ccccc1N1CCCCC1)c1ccc(F)cc1Cl was read as VDR inhibitor -9%.
`C[C@@H]1CN([C@@H](C)CO)C(=O)c2cc(NC(=O)Nc3ccc4c(c3)OCO4)ccc2O[C@H]1CN(C)S(=O)(=O)c1ccc(F)cc1` gave VDR inhibitor -8%.
Screening COc1ccccc1NCc1nnc2n1CCCCC2 returned VDR inhibitor 3%.
`CC(=O)c1cccc(-n2c(CCC(=O)O)ccc2-c2ccccc2)c1` gave VDR inhibitor -9%&-29%.
For CCc1cccc(OCC(=O)Nc2ccc(C)c(S(=O)(=O)N3CCCCCC3)c2)c1 the results were VDR inhibitor inconclusive.
`O=C1Nc2cc(C(=O)N3CCOCC3)ccc2S/C1=C\c1ccccc1` gave VDR inhibitor -2%.
COc1cc(OC)c(N(C)S(=O)(=O)c2cccc(C(=O)NC3=NCCS3)c2)cc1Cl was read as VDR inhibitor 6%.
For C=CC[C@@H](CC(=O)N[C@@H](CO)Cc1ccccc1)C(=O)NCCOC(=O)[C@@H](CC=C)CC(=O)OC(C)(C)C the results were VDR inhibitor -12%.
`Cc1cc(Cl)ccc1OCCCC(=O)N/N=C/c1cccc([N+](=O)[O-])c1` gave VDR inhibitor -8%.

Grouped by structure, the entries above with fluorine (4)
Screening O=c1cc(-c2ccc(F)cc2)nc(SCc2nc(-c3cccc(Cl)c3)no2)[nH]1 returned VDR inhibitor 10%.
For Cn1cnc(S(=O)(=O)N2CCCC(C(=O)NCc3ccc(F)cc3)C2)c1 (stereo unspecified) the results were VDR inhibitor 8%.
O=C(NC(=S)Nc1ccccc1N1CCCCC1)c1ccc(F)cc1Cl was read as VDR inhibitor -9%.
`C[C@@H]1CN([C@@H](C)CO)C(=O)c2cc(NC(=O)Nc3ccc4c(c3)OCO4)ccc2O[C@H]1CN(C)S(=O)(=O)c1ccc(F)cc1` gave VDR inhibitor -8%.

Next part
Screening COc1cnc(SCCC(F)=C(F)F)[nH]c1=O returned VDR inhibitor 6%.
O=C1C=C(c2cccc(OCc3ccccc3)c2)C[C@@H](c2ccc3c(c2)OCO3)C1 was read as VDR inhibitor inconclusive.
`N#CC1=C(N)Oc2n[nH]c(-c3cccs3)c2C1C1CCCCC1` (stereo unspecified) gave VDR inhibitor -2%.
`COc1ccc(S(=O)(=O)N(C)CC(=O)N2CCOCC2)cc1Cl` gave VDR inhibitor -2%.
Screening O=C(C[n+]1ccccc1)N/N=C/c1c(F)cccc1Cl returned VDR inhibitor -4%.
Screening CC(=O)c1c(C)oc2ccc(N(C(=O)C3CCCCC3)S(=O)(=O)c3cc([N+](=O)[O-])ccc3C)cc12 returned VDR inhibitor 4%.
For CCOc1ccccc1-n1c(SCC(=O)NCc2ccco2)nnc1-c1ccncc1 the results were VDR inhibitor -3%.
For COCc1cc(C(C)=O)ccc1OC the results were VDR inhibitor -5%.
Screening N#CC1=C2SCN(C3CCCCC3)CN2C(=O)CC1c1ccc(Br)cc1 (stereo unspecified) returned VDR inhibitor 18µM*.
`C=CCSc1nnc(-c2cccc3ccccc23)o1` gave VDR inhibitor -3%.
Screening N#C/C(=C(/O)c1ccc([N+](=O)[O-])s1)c1nc2ccccc2[nH]1 returned VDR inhibitor 14%.
For Cc1cc(C)n2nc(SCc3nc4ccccc4[nH]3)nc2n1 the results were VDR inhibitor -5%.
For O=C(CCc1ccccc1)Nc1cc2c3c(c1)CCC(=O)N3CCC2 the results were VDR inhibitor -4%.
Screening COc1cc(CO)c(Br)cc1OCC(N)=O returned VDR inhibitor -14%.
For COc1cc(/C=N/n2c(-c3cc(C)[nH]n3)n[nH]c2=S)cc(OC)c1O the results were VDR inhibitor 7%.
Screening CCOC(=O)NNc1cc(C(F)(F)F)ccn1 returned VDR inhibitor -2%.
For Cc1cc(C)n(C(=O)c2cccc([N+](=O)[O-])c2)n1 the results were VDR inhibitor -17%.
CC(C)CC[n+]1ccn(C2=C([O-])c3ccccc3C(=O)/C2=N\S(=O)(=O)c2ccccc2)c1 was read as VDR inhibitor -20%.
Screening O=C1ON=C(c2ccc(Cl)cc2)/C1=C/c1ccc(O)cc1 returned VDR inhibitor inconclusive.
Screening CCCSc1nc(=O)n2cccc(C)c2n1 returned VDR inhibitor 1%.
COc1ccc(N(C(=O)c2ccncc2)S(=O)(=O)c2ccc(OC)c(OC)c2)cc1 was read as VDR inhibitor 8%.
For COc1ccc(N2CCN(C(=O)c3ccc(C)c(Cl)c3)CC2)cc1 the results were VDR inhibitor -1%.
For COc1ccc(C(=O)N2CC(c3ccc(Cl)cc3)CC2=O)cc1 (stereo unspecified) the results were VDR inhibitor -16%.
COc1ccc(Nc2ncc(C(=O)N3CCN(c4ccccc4OC)CC3)c3ccccc23)cc1 was read as VDR inhibitor -21%&-2%.
CCS(=O)(=O)c1ncc(Cl)c(C(=O)NCc2ccc(OC)cc2)n1 was read as VDR inhibitor -12%.
Screening O=C(/C=C/c1ccccc1)N1CCN(c2ccc([N+](=O)[O-])c(N3CCOCC3)c2)CC1 returned VDR inhibitor 0%.
`COc1cc(C(=O)Nc2cc(C)cc(C)c2)c(-n2cnnn2)cc1OC` gave VDR inhibitor -1%.
For Cc1ccc(Cl)cc1NC(=O)CCn1cnc2ccccc2c1=O the results were VDR inhibitor 3%.
For Cc1cc(C(=O)O)c(CCCN)s1 the results were VDR inhibitor -4%.
Screening CCc1ccccc1OCC(=O)Nc1nc(-c2cccnc2)cs1 returned VDR inhibitor inconclusive.
For Cc1cc(SCC(=O)N2CCCC2=O)nc2ccccc12 the results were VDR inhibitor 5%.
`O=C(c1ccccc1Cl)N1CCC(c2nc3ccccc3s2)CC1` gave VDR inhibitor 8%.
Screening COc1cc(C#N)ccc1OCC(=O)NCc1cccs1 returned VDR inhibitor 9%.
For O=C(N/N=C/c1ccncc1)NC12CC3CC(CC(C3)C1)C2 the results were VDR inhibitor 2%.
Screening CCOC(=O)c1c(NC(=O)CN2C(=O)NC3(CCC(CC)CC3)C2=O)sc(C)c1-c1ccc(C)cc1 (stereo unspecified) returned VDR inhibitor 12%.
For CCOC(=O)CNC(=O)N1CCC(CCC(=O)N(C)Cc2ccccc2)CC1 the results were VDR inhibitor -9%.
`Cc1nn(C)cc1CNC(=O)c1ccc(F)cc1` gave VDR inhibitor -1%.
Screening CCOc1ccc(C(=O)CCC(=O)Nc2cccc(S(=O)(=O)N3CCCCC3)c2)cc1 returned VDR inhibitor -6%.
For Cc1ccc(S(=O)(=O)N2CCN(C(=O)COC(=O)CSc3ccccc3)CC2)c(C)c1 the results were VDR inhibitor -25%.
For Cc1ccc(NC(=O)COC(=O)c2ccc(F)cc2Cl)c(Br)c1 the results were VDR inhibitor 12%.
`COc1ccccc1-n1c(CNC(=O)c2ccco2)n[nH]c1=S` gave VDR inhibitor -8%.
Screening CN(c1ccccc1)S(=O)(=O)c1ccc(C(=O)OCC(=O)NC(N)=O)cc1 returned VDR inhibitor -8%.
For Cc1ccc2c(c1)COc1c3ccc(C(=O)N[C@@H](CO)C(C)C)cc3nn1-2 the results were VDR inhibitor -5%.
COc1ccc(-n2cnc3c(sc4nccc(N(C)C)c43)c2=O)cc1 was read as VDR inhibitor 27%.
`CCNCC(=O)N1c2ccccc2CCc2ccc(NC(C)=O)cc21` gave VDR inhibitor 14%.
For Cc1c(C(=O)N/N=C/c2ccoc2)cccc1[N+](=O)[O-] the results were VDR inhibitor 21%.
`O=C(O)CCCC(=O)NCCc1ccncc1` gave VDR inhibitor -7%.
`O=C(Oc1ccc(Cl)c2cccnc12)C12CC3CC(CC(C3)C1)C2` gave VDR inhibitor 10%.
CC(C)c1ccc(C2OCCCO2)cc1 was read as VDR inhibitor 6%.
For Cc1ccc(S(=O)(=O)N2CCOCC2)cc1C(=O)N1CC(C)OC(C)C1 (stereo unspecified) the results were VDR inhibitor -17%.
COc1ccc(-n2c(Cc3cccn3C)nnc2SCC(=O)N2CCOCC2)cc1 was read as VDR inhibitor -10%.
Cc1ccccc1NC(=O)Cn1nc(C)c2ccccc2c1=O was read as VDR inhibitor -19%.
For CC1Cc2ccccc2N1C(=O)CSCC(=O)O (stereo unspecified) the results were VDR inhibitor 9%.
`O=C(C1CCCN(Cc2nc(-c3ccc(Cl)cc3)no2)C1)N1CCOCC1` (stereo unspecified) gave VDR inhibitor -15%.
Screening COc1ccc(OC)c2c(C)cc(N3CCCN(C)CC3)nc12 returned VDR inhibitor -10%.
For COC(=O)Nc1nc2ccc(Br)cc2s1 the results were VDR inhibitor -4%.
`Cc1c([N+](=O)[O-])cc(C(=O)Nc2ccc3ncccc3c2)cc1[N+](=O)[O-]` gave VDR inhibitor -13%.
CC1(NC(=O)N2CCCCC2)CCS(=O)(=O)C1 (stereo unspecified) was read as VDR inhibitor -10%.
For COc1ccc(CC(=O)NNC2=Nc3cccc4cccc2c34)cc1OC the results were VDR inhibitor -18%.
For CCOC(=O)c1ccc(NC(=S)NCCCN2CCCC2=O)cc1 the results were VDR inhibitor -12%.

Structural class, the entries above with a COOH group
`CC(=O)c1cccc(-n2c(CCC(=O)O)ccc2-c2ccccc2)c1` gave VDR inhibitor -9%&-29%.
For Cc1cc(C(=O)O)c(CCCN)s1 the results were VDR inhibitor -4%.
`O=C(O)CCCC(=O)NCCc1ccncc1` gave VDR inhibitor -7%.
For CC1Cc2ccccc2N1C(=O)CSCC(=O)O (stereo unspecified) the results were VDR inhibitor 9%.

(further entries)
For Cc1noc(C)c1S(=O)(=O)N(CC(=O)NCc1ccccc1)c1ccc(C(C)C)cc1 the results were VDR inhibitor 0%&-9%.
Screening CCOc1ccc(NC(=O)CN(C)C(=O)Cn2c(=O)oc3ccccc32)cc1OCC returned VDR inhibitor -8%.
`O=C(OCc1cc2ccccc2[nH]c1=O)c1ccccn1` gave VDR inhibitor -15%.
Screening CC(=O)N1CCN(c2ccc(NCc3ccc(F)cc3)cc2)CC1 returned VDR inhibitor inconclusive.
`NC(=O)c1c(/N=C/c2cccs2)sc2c1CCCC2` gave VDR inhibitor inconclusive.
Screening Cc1ccc(C(C)NC(=O)Cc2cccs2)c(C)c1 (stereo unspecified) returned VDR inhibitor -4%.
`CCN(CC)c1ccc2c(cc1=O)[C@@H](NC)CCc1cc(OC)c(OC)c(OC)c1-2` gave VDR inhibitor -3%.
Screening Cc1[nH][nH]c(=O)c1C(c1ccc(-c2ccc(Cl)c(Cl)c2)o1)c1c(C)[nH][nH]c1=O returned VDR inhibitor 79µM*.
O=[N+]([O-])c1ccc(-c2nnc(-c3ccccc3)c(N3CCOCC3)n2)cc1 was read as VDR inhibitor -2%.
Screening COc1cc(/C=N/N=C/c2c[nH]c(=O)c(C#N)c2Nc2ccccc2)ccc1O returned VDR inhibitor 10%.
CCOC(=O)c1nc2sc3c(c2c(=O)[nH]1)CCC(C)C3 (stereo unspecified) was read as VDR inhibitor -2%.
For COCCn1c(-c2ccccc2)nc2ccccc21 the results were VDR inhibitor -2%.
Screening O=C(O)c1cc2n(n1)C(C(F)(F)F)CC(c1ccccc1)N2 (stereo unspecified) returned VDR inhibitor 4%.
CC1CCN(Cc2c(O)ccc3c(=O)c(-c4ccc(Cl)cc4)c(C(F)(F)F)oc23)CC1 was read as VDR inhibitor -13%.
Screening CCOc1ccc(CN(CCc2ccc3c(c2)OCO3)Cc2cc(OC)cc(OC)c2)cc1 returned VDR inhibitor -15%.
Cc1cc(C)c(C(=O)COC(=O)c2ccc(NC(=O)CC#N)cc2)cc1C was read as VDR inhibitor 0%.
`O=C(NN1CCOCC1)c1ccc([N+](=O)[O-])cc1` gave VDR inhibitor -9%.
Screening Cc1ccccc1-n1c(SCC(=O)c2c(N)n(C)c(=O)n(C)c2=O)nnc1-c1cccnc1 returned VDR inhibitor 6%.
`CCCSCCCNC(=O)c1sc2nc(C)cc(C)c2c1-n1cccc1` gave VDR inhibitor -7%.
For O=C(CSc1nnc(-c2csc3c2CCCC3)o1)Nc1ccccc1 the results were VDR inhibitor -5%.
For CC1CCCCC1NC(=O)c1nnc(Cc2ccc(Cl)cc2)o1 (stereo unspecified) the results were VDR inhibitor 4%.

An excerpt. The share of hits here may be higher or lower than overall.
